Env fusion inh – blocks HIV Env-driven cell-cell fusion; 360,000 tested, 1.1% active; inhibition, % at 12.3 µM; HeLa-JRFL Env/CEM21 cell fusion, luciferase;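 active means mean replicate inhibition score of at least 50 and every replicate individually at or above 50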;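 further: 0% = plate neutral controls and 100% = maraviroc near 300 nM; one replicate is shown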
MT1-MMP act inh – inhibitors of human MT1-MMP activation; P50281; HT1080 RFP-PRO-GFP cells, GFP/RFP ratio fluorescence, overnight; percent of plate control window, DMSO zero; GFP/RFP ratio change, % at 20 µM; 360,000 tested, 0.061% active;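 active means GFP/RFP ratio change of at least 30% with cell ATP level not reduced by more than half and red fluorescence within 50% of control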; further: strong numbers were not always called active
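Compound: 20 µM single dose, 1% DMSO / System: HT1080 RFP-PRO-GFP cells / Controls: DMSO and RFP-L50D-GFP cell wells / Read-out basis: GFP/RFP fluorescence ratio / Schedule: overnight compound exposure at 37 °C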
Rce1 inhib – blocks yeast Ras-converting enzyme; 290,000 tested, 0.27% active; AID 2563; calls only; yeast membranes, quenched prenylated peptide cleavage fluorescence;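 active means fall in fluorescence gain of 50% or more versus controls, with final raw signal at or below 3038400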;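 further: plate controls were neutral control wells for no effect and wells lacking membranes for full effect; tested at 10 µM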
Target sequence (Q03530 whole entry, looked up): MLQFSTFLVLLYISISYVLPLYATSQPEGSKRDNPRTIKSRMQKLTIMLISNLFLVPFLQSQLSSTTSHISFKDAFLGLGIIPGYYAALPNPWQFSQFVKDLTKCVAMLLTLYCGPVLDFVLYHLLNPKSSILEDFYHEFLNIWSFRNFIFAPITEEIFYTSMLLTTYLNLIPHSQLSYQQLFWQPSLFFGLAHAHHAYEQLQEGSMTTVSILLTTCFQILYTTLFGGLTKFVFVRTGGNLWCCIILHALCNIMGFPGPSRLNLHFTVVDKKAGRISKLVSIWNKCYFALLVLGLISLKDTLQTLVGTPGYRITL
PABP FP inh – blocks human PABP binding to poly(A) RNA | fluorescence polarization | 290,000 tested, 1% active | inhibition, % at 35 µM | P11940;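 active means 50% or more with normal probe brightness, or confirmed in later tests; about a fifth of its hits are not listed in these tables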;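 further: calls also rest on retests at 20 µM and on dose response follow-up; controls were probe without protein and protein plus probe with vehicle; some compounds called inactive have numbers as strong as hits; many hits fall short of the cut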
Target sequence (P11940 whole entry, looked up): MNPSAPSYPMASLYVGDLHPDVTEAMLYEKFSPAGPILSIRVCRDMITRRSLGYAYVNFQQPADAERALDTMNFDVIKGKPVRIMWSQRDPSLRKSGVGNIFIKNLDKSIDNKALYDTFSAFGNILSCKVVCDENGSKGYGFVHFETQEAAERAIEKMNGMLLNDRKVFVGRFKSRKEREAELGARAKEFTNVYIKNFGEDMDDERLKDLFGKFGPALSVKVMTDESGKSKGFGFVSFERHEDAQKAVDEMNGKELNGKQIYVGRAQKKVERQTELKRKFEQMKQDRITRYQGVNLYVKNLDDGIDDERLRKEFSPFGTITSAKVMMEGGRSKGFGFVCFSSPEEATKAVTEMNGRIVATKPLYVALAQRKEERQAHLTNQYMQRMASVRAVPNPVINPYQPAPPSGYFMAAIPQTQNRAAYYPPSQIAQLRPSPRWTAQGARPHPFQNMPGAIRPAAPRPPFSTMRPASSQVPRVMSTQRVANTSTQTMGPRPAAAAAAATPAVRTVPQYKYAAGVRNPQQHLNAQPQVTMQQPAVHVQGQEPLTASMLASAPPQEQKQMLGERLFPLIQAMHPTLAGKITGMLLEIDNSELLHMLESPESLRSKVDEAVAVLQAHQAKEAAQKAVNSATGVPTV
UUG fidelity – alters start codon recognition fidelity in yeast | S. cerevisiae UUG-firefly luciferase reporter, luminescence/redox ratio | activity score, % at 18.7 µM | 350,000 tested, 0.13% active | AID 602363;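 active means replicate mean at a twofold rise or more, about +100% in these data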;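 further: firefly luciferase made from a UUG start codon reports start codon fidelity; reporter light over untreated wells divided by growth signal over untreated wells; some hits fall short of that in this replicate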
eIF4H FP inh – inhibitors of RNA binding by human eIF4H. 290,000 tested, 0.94% active. AID 2012. Q15056. eIF4H fluorescence polarization binding assay. inhibition, % at 35 µM;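 active means 50% or more with normal probe brightness, or confirmed in later tests; about a fifth of its hits are not listed in these tables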;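 further: calls also rest on retests at 20 µM and on dose response follow-up; 0% = protein and probe with vehicle and 100% = probe without protein; strong numbers were not always called active; many hits fall short of the cut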
CSC inhib – cancer stem cell inhibition; 300,000 tested, 1.1% active; inhibition, % at 7.5 µM; cancer stem cell-like cells viability, luminescence; AID 2717;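 active means mean at 75% or more and at least half the replicates too; tested in HMLE shEcad cells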;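 further: 0% = median of negative and 100% = median of positive control wells; the first replicate is given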
MT1-MMP act inh RFP – also measured in MT1-MMP act inh; calls as there; RFP signal change, %; measured here: RFP expression control read;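 0 = vehicle wells; hits needed this value within 50% of zero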
* = called active by the depositor; i = inactive; / = no result given.

No.	mol	Env fusion inh	MT1-MMP act inh	MT1-MMP act inh RFP	Rce1 inhib
1	Cc1ccc(N2C(=O)C(Cl)=C(NCCO)C2=O)c(C)c1	-33	1	8	i
2	COc1ccc(-c2csc(NC(=O)CSCc3c(C)noc3C)n2)cc1OC	-11	-6	-7	i
3	COc1ccc(NC(=S)NC(=O)Cc2ccccc2)cc1	-19	2	1	i
4	O=C(CSc1nnc(SCc2ccccc2)s1)N/N=C/c1c[nH]c2ccccc12	3	6	-1	i
5	O=C(Cc1ccsc1)Nc1cc(F)ccc1F	-4	-2	0	i
6	O=C(c1ccccc1Cl)N1CCN(c2ccccn2)CC1	/	2	1	i
7	Cn1c(CNc2ccc(Cl)cc2)nnc1SCc1ccccc1	16	-2	-1	i
8	CSCCC(NS(=O)(=O)c1ccccc1)C(=O)OCc1cc(=O)oc2cc(O)ccc12 (stereo unspecified)	/	0	5	i
9	O=C(CSc1ccccn1)Nc1nonc1[N+](=O)[O-]	1	-3	-3	i
10	CC1=NN(C(N)=S)C(=O)C1N=Nc1ccc(O)cc1 (stereo unspecified)	-29	23	-14	i

No.	PABP FP inh	UUG fidelity	eIF4H FP inh	CSC inhib
1	3	/	7	-11
2	4	-11	-20	3
3	1	-11	-4	-11
4	-10	/	35	/
5	0	-13	0	2
6	6	-2	-2	/
7	2	/	4	-7
8	/	-5	/	-11
9	9	-5	1	/
10	6	-18	-3	/

(cont.)
No.	mol	Env fusion inh	MT1-MMP act inh	MT1-MMP act inh RFP	Rce1 inhib
11	COc1ccc2oc(=O)cc(-c3cc4cccc(OC)c4o3)c2c1	-3	-4	-4	i
12	N#C/C(=C(/O)CN1C(=O)c2ccccc2C1=O)c1nc2ccccc2[nH]1	/	-1	-6	i
13	CCn1c(SCC(=O)NCCOc2ccccc2)nc2ccccc2c1=O	/	-1	2	i
14	CCC1(CC)C(=O)C(C)(C)C(=O)OC1c1cccs1 (stereo unspecified)	/	1	0	i
15	COc1ccc(CCNc2ncnc3nc[nH]c23)cc1OC	18	2	-12	i
16	COc1ccc(CCNC(=O)c2coc3ccccc3c2=O)cc1	26	-2	-4	i
17	CCOC(=O)c1cc(NC(=O)/C=C\C(=O)O)ccc1Cl	-2	-2	2	i
18	CN(C)c1cccc(C(=O)N(Cc2ccccc2)Cc2ccccc2)c1	7	-2	-8	i
19	CCOc1cccc2sc(N(CCCN(C)C)C(=O)c3ccc(S(=O)(=O)N4CCc5ccccc5C4)cc3)nc12	51	-3	-3	i
20	Cc1ccc(S(=O)(=O)N(C)c2ccc(OCC(=O)OCc3nnc(-c4ccccc4)o3)cc2)cc1	-16	3	3	/

No.	PABP FP inh	UUG fidelity	eIF4H FP inh	CSC inhib
11	-5	-24	-1	-17
12	-6	1	2	-5
13	3	2	-12	/
14	-1	-17	17	1
15	6	-23	4	-1
16	2	-11	1	-11
17	-3	/	-4	-8
18	-1	-1	10	8
19	-34	5	-14	22
20	/	-8	/	/

Following part.
No.	mol	Env fusion inh	MT1-MMP act inh	MT1-MMP act inh RFP	Rce1 inhib
21	CCOC(=O)Cc1csc(/N=C/c2c(O)n(-c3ccc(C)c(C)c3)c(=O)c3ccccc23)n1	38	-9	-9	i
22	Cc1ccnc2nc(C(=O)OCC(=O)NCCc3ccccc3)nn12	/	/	/	i
23	Cc1cccc(-n2c(O)c(C=Nc3ccccc3-c3n[nH]c(=S)[nH]c3=O)c3ccccc3c2=O)n1	14	4	0	i
24	O=C1CCCN1CCCN1C(=O)N[C@@H](Cc2ccccc2)C1=O	-138	-1	0	i
25	CCc1cc2c(NC3CCCC3)ncnc2s1	40	2	-30	i
26	Cc1cc(NS(=O)(=O)c2ccc(NC(=O)CSc3nnc(-c4ccco4)n3C)cc2)nc(C)n1	5	-3	-4	i
27	CCOC(=O)N1CCN(C(=O)C2CC(c3ccccc3OC)=NO2)CC1 (stereo unspecified)	/	5	0	i
28	Cn1c(=O)c2c(nc(SCC(=O)N3CCOCC3)n2C)n(C)c1=O	5	4	6	i
29	Cc1cc(C)cc(N2CCN(C(=O)N3CCOCC3)CC2)c1	/	-2	1	i
30	CC1CCCN(S(=O)(=O)c2ccc(NC(=O)c3cccc(-n4cnnn4)c3)cc2)C1 (stereo unspecified)	-45	3	-11	i

No.	PABP FP inh	UUG fidelity	eIF4H FP inh	CSC inhib
21	-25	/	-20	34
22	3	/	-3	10
23	14	/	-5	1
24	-3	-9	-1	-18
25	0	-19	-9	0
26	8	/	-6	-31
27	0	7	-12	-3
28	2	7	5	-6
29	3	1	-1	-5
30	-10	15	-5	-3

Carrying on:
No.	mol	Env fusion inh	MT1-MMP act inh	MT1-MMP act inh RFP	Rce1 inhib
31	OCCN1CN=C(Nc2nc3ccccc3o2)NC1	-18	1	-1	i
32	CCc1ccc(CN(C)Cc2nc(Cc3ccccc3)no2)nc1	10	-5	1	i
33	CCC[n+]1cn(/C(C(=S)Nc2cccc(Cl)c2C)=C(/[O-])c2ccc(OC)c(OC)c2)c2ccccc21	5	-3	-2	/
34	Oc1ccccc1-c1cc(C(F)(F)C(F)F)[nH]n1	4	-5	-8	i
35	COc1ccc(N2C(=NC(C)=O)SC3CS(=O)(=O)CC32)cc1OC (stereo unspecified)	/	3	4	i
36	Cc1cccc(-n2cc(CN(C)Cc3nccn3C)c(-c3cccc(F)c3)n2)c1	10	-8	-6	i
37	Fc1ccccc1CSc1nncn1NC/C=C/c1ccccc1	/	-1	1	i
38	COc1cc(CC(=O)N(C)CC(=O)Nc2ccc(Cl)c(C(F)(F)F)c2)cc(OC)c1OC	50	0	-5	i
39	Nc1ccc(N2CCCCC2)c(Cl)c1	20	0	1	i
40	O=C(c1ccc(=O)n(Cc2ccccc2)n1)N1CCN(C/C=C/c2ccccc2)CC1	6	0	-6	i

No.	PABP FP inh	UUG fidelity	eIF4H FP inh	CSC inhib
31	-5	-27	-7	-4
32	1	-3	-4	-7
33	-11	/	-7	-4
34	-6	-6	0	17
35	6	-9	-1	-8
36	0	-13	6	103*
37	5	-8	-12	-8
38	10	10	-12	-1
39	-8	/	-5	-2
40	-10	-16	-1	-16

Carrying on.
No.	mol	Env fusion inh	MT1-MMP act inh	MT1-MMP act inh RFP	Rce1 inhib
41	Cc1cccc(Oc2ncnc3oc(-c4ccccc4)cc23)c1C	23	-4	-8	i
42	CCOc1ccc2c(c1)OC(c1ccccc1)(C(F)(F)F)NC2=O (stereo unspecified)	-31	-9	-7	i
43	CCc1cc2c(=O)n(Cc3ccco3)c(SCC(=O)N(C)C3CCS(=O)(=O)C3)nc2s1 (stereo unspecified)	19	1	-7	i
44	Cc1ccc(Nc2nc(CSc3nnc(-c4ccccc4C)n3C)cs2)cc1	-21	-2	-5	i
45	Cc1cccc(OCC(=O)N(Cc2ccco2)C2CCS(=O)(=O)C2)c1C (stereo unspecified)	-5	-4	-2	i
46	CCc1ccc(C(=O)NNC(=O)CC2OC(=O)c3ccccc32)cc1 (stereo unspecified)	-2	-4	1	i
47	CCC(=O)Nc1ccc2c(c1)nc1n2CCN(C2CCCCC2)C1	1	0	5	i
48	O=C(OCc1cc(=O)n2cc(Br)ccc2n1)c1ccc(Cl)c(S(=O)(=O)NCc2ccccc2)c1	0	-1	-5	i
49	CCCCc1ccc(-n2nnnc2SCC(=O)Nc2cc(OC)c([N+](=O)[O-])cc2C)cc1	13	3	-9	i
50	CN(C(=O)c1cn2ccccc2n1)c1c(N)n(Cc2ccccc2)c(=O)[nH]c1=O	-28	5	1	i

No.	PABP FP inh	UUG fidelity	eIF4H FP inh	CSC inhib
41	-14	/	2	-3
42	1	-17	-7	-2
43	26	/	8	/
44	13	/	6	-6
45	2	-1	-8	-6
46	/	/	/	-2
47	11	/	14	3
48	-6	-12	-1	-4
49	-7	8	-1	16
50	/	/	/	-9

Carrying on.
No.	mol	Env fusion inh	MT1-MMP act inh	MT1-MMP act inh RFP	Rce1 inhib
51	O=[N+]([O-])c1ccc(Cl)c(S(=O)(=O)NC2=NCCC2)c1	1	0	1	/
52	COCC(=O)Nc1nc2ccc(S(C)(=O)=O)cc2s1	-3	0	0	i
53	CCOc1cc(/C=N/NC(=O)Cc2ccc(C(F)(F)F)cc2[N+](=O)[O-])ccc1O	/	0	-1	i
54	CCc1ccc(NC(=O)[C@H](C)NC(=O)C2CCN(C(=O)[C@@H](N)C(C)C)CC2)cc1	16	0	4	i
55	COc1ccc(CN2CCNC(=O)C2CC(=O)N2CCCCO2)c(OC)c1 (stereo unspecified)	-16	2	4	/
56	C=C1c2cc3c(cc2NC(=S)N1Cc1ccccc1)OCO3	-1	-3	-1	i
57	COc1ccc(S(=O)(=O)NC(C)C(=O)Nc2ccccc2)cc1Cl (stereo unspecified)	/	-4	0	i
58	O=C(c1ccccc1)N1CCN(C(=S)NCc2ccco2)CC1	8	1	4	i
59	O=C(NCc1ccccc1)C1Cc2ccccc2CN1C(=O)c1ccco1 (stereo unspecified)	16	-2	0	i
60	CCOC(=O)n1c(O)c(N=NC(N)=S)c2cc(C)ccc21	0	2	6	i

No.	PABP FP inh	UUG fidelity	eIF4H FP inh	CSC inhib
51	/	-17	/	/
52	-8	4	-2	-25
53	2	-18	-2	-4
54	19	-8	-6	-8
55	2	/	-3	-11
56	14	-20	3	19
57	-5	-14	-9	16
58	0	-16	1	-8
59	6	-12	10	-11
60	1	/	-7	1

Grouped by structure, those above with an NH in an aromatic ring.
No.	mol	Env fusion inh	MT1-MMP act inh	MT1-MMP act inh RFP	Rce1 inhib
4	O=C(CSc1nnc(SCc2ccccc2)s1)N/N=C/c1c[nH]c2ccccc12	3	6	-1	i
12	N#C/C(=C(/O)CN1C(=O)c2ccccc2C1=O)c1nc2ccccc2[nH]1	/	-1	-6	i
15	COc1ccc(CCNc2ncnc3nc[nH]c23)cc1OC	18	2	-12	i
23	Cc1cccc(-n2c(O)c(C=Nc3ccccc3-c3n[nH]c(=S)[nH]c3=O)c3ccccc3c2=O)n1	14	4	0	i
34	Oc1ccccc1-c1cc(C(F)(F)C(F)F)[nH]n1	4	-5	-8	i
50	CN(C(=O)c1cn2ccccc2n1)c1c(N)n(Cc2ccccc2)c(=O)[nH]c1=O	-28	5	1	i

No.	PABP FP inh	UUG fidelity	eIF4H FP inh	CSC inhib
4	-10	/	35	/
12	-6	1	2	-5
15	6	-23	4	-1
23	14	/	-5	1
34	-6	-6	0	17
50	/	/	/	-9

Other structures:
No.	mol	Env fusion inh	MT1-MMP act inh	MT1-MMP act inh RFP	Rce1 inhib
61	CCN(CC)CCCNC(=O)CCn1nc(-c2ccc(Cl)cc2)ccc1=O	-1	-6	-3	i
62	Cn1nnnc1Sc1ncnc2scc(-c3ccc([N+](=O)[O-])cc3)c12	-122	-1	-22	/
63	O=C(CN(C(=O)CCC(=O)Nc1ccccn1)c1cccc(F)c1)NCc1ccco1	-14	-2	-1	i
64	CCc1ccc(NC(=O)c2sc3nc(C)nc(N4CCN(c5ccccn5)CC4)c3c2C)cc1	3	2	-8	i
65	COC(=O)c1c(NC(=O)CN2C(=O)c3ccccc3C2=O)sc(Cc2ccc3c(c2)OCO3)c1C	-1	9	3	i
66	COc1ccc(Cc2n[nH]c(=S)n2-c2cc(C)ccc2C)cc1OC	-17	4	3	/
67	COC(=O)c1ccsc1NC(=O)c1ccco1	-63	-3	2	i
68	Cc1[nH]n(-c2ccccc2)c(=O)c1N=Nc1cccc([N+](=O)[O-])c1	19	-1	-1	/

No.	PABP FP inh	UUG fidelity	eIF4H FP inh	CSC inhib
61	1	0	8	1
62	/	-20	/	73
63	-2	11	-3	-11
64	-4	0	-4	14
65	12	-17	-3	-9
66	/	-21	/	/
67	8	-2	14	-13
68	-10	-20	-11	6

Bioassay records as filed in PubChem.

Some of the compounds tested; rates above refer to the full screens.
